Compound activity deposited in PubChem by SRMLSC.
H5N1 CPE – antiviral screen in MDCK cells, H5N1 avian flu; cytopathic effect, luminescence, 72 h; active compounds read high; no value below 0 was filed and about half of the inactive calls have no number; reference of the scale not given here; inhibition, % at 50 µM; 96,000 compounds, 0.07% hits; AID 740; in the data active means inhibition above about 25%
* marks the source's active call; other numbers are inactive results; i = inactive. The list is partial; count on the stated rates, not on these rows.

SMILES	H5N1 CPE
CCOC(=O)c1ccc(NC(=O)CN2C(=O)C(=O)N(CC(C)C)C2=O)cc1	i
CSC1=C(C#N)C(c2ccc(C(C)C)cc2)CC(=O)N1 (configuration not stated)	i
CCc1ccc(C(=O)COC(=O)CNC(=O)c2cccs2)cc1	i
Cn1c(CN2CCCC2)nc2cc(NS(=O)(=O)c3ccccc3)ccc21	i
CN(C)CCCC(=O)c1ccc2c(c1)OCO2	i
C=C(C)CSc1nc2ncccc2[nH]1	0.5
Cc1cccc2c1Sc1ccccc1CC2=O	0.7
O=C(Nc1cnc2ccccc2c1)c1cccnc1	i
C=CCn1c(SCC(=O)Nc2ncc(Cc3cc(C(F)(F)F)ccc3Cl)s2)nnc1-c1ccncc1	i
C(#Cc1ccccc1)Cn1nnc2ccccc21	i
CNC(=S)N1CCN(c2cccc(OC)c2)CC1	0.5
Cc1cc(NC(=O)c2cc(-c3cccs3)on2)nn1Cc1ccc(Cl)cc1	i
CCCCN(C)Cc1c(C)[nH]c2ccc(Cl)cc2c1=O	i
Cc1cc(NC(=O)CSc2nc3ccccc3c(=O)n2C2CCCC2)no1	0.9
Cn1c(Cn2c(=O)sc3ccccc32)nnc1SCC(=O)NCCc1ccccc1	1.2
Cc1cccc(Cn2c(SCCO)nc3c2c(=O)n(C)c(=O)n3C)c1	3.0
COc1ccc2cc(CN(CC3CCCO3)S(=O)(=O)c3ccccc3Cl)c(=O)[nH]c2c1 (configuration not stated)	0.6
O=C(c1ccc(Cl)cc1)N1CCN(C(=O)c2ccco2)CC1	i
Cc1onc(-c2ccccc2Cl)c1C(=O)Nc1ccccc1C(N)=O	0.6
COc1ccc(O)c(-c2cc(C(F)(F)C(F)F)nc(-c3ccccc3)n2)c1	i
Cc1csc(C(=O)O)c1-n1cccc1	1.0
COc1ccc(-c2cc(C(=O)Nc3c(C)nn(Cc4ccccc4Cl)c3C)no2)cc1OC	i
O=C(NCC(F)(F)F)Nc1cccnc1	0.5
COc1ccc(N(CC(=O)NCc2ccco2)S(C)(=O)=O)cc1OC	2.2
CCOc1ccc(N(CC(=O)N2CCc3ccccc32)S(=O)(=O)c2c(C)noc2C)cc1	i

Reprinted at random: 4 compounds from above, in no set order.
SMILES	H5N1 CPE
CCc1ccc(C(=O)COC(=O)CNC(=O)c2cccs2)cc1	i
COc1ccc(N(CC(=O)NCc2ccco2)S(C)(=O)=O)cc1OC	2.2
CCCCN(C)Cc1c(C)[nH]c2ccc(Cl)cc2c1=O	i
C(#Cc1ccccc1)Cn1nnc2ccccc21	i

(more compounds)
SMILES	H5N1 CPE
c1ccc(C(c2nnnn2Cc2ccco2)N2CCN(C3CCCC3)CC2)cc1 (configuration not stated)	0.3
O=C1c2ccccc2C(=O)N1CCc1csc(-c2ccc(F)cc2)n1	i
CCCCn1c(=O)n(C)c(=O)c2c3c(sc21)COC(C)(C)C3	0.5
CCSc1ccccc1C(=O)Nc1cccnc1	i
CCn1c(COc2ccccc2)nnc1SCC(=O)c1cccc([N+](=O)[O-])c1	1.7
CCOC(=O)c1csc(NC(=O)c2ccccc2)n1	i
O=C1/C(=C/c2ccc(F)cc2)SC(=S)N1Nc1ncc(C(F)(F)F)cc1Cl	i
Cc1nc2nc[nH]n2c(=O)c1CC(=O)O	0.1
Cc1noc(NS(=O)(=O)c2ccc(NC(=O)COc3ccc(Cl)cc3Cl)cc2)c1C	2.3
O=C(Nc1ccc(Cl)cc1C(=O)c1ccccc1)c1ccc(Br)o1	i
COc1ccc(N2C(=O)CC(N3CCC(c4nc5ccccc5[nH]4)CC3)C2=O)cc1 (configuration not stated)	0.4
COC(=O)c1ccccc1S(=O)(=O)NC(=O)c1ccccc1	i
Cc1ccc(C2Oc3ccccc3C3=C2C(c2cccs2)n2ncnc2N3)cc1 (configuration not stated)	0.2
CCOC(=O)C(C)Oc1nc(Oc2ccccc2)nc(N(C)C)n1 (configuration not stated)	i
O=C(CSc1nccc(=O)[nH]1)N1CCc2ccccc2C1	0.2
CCCC(c1nnnn1CCc1ccccc1)N1CCN(C(=O)c2ccco2)CC1 (configuration not stated)	0.3
CC1(C)CC(=O)C(CC2=C(O)CC(C)(C)CC2=O)=C(O)C1	0.5
O=C(NCCN=C1NS(=O)(=O)c2ccccc21)c1ccc2nccnc2c1	0.3
CCOC(=O)N1CCN(c2c(-c3ccc(C)c(C)c3)c(=O)c2=O)CC1	0.6
CCOC(=O)C(C#N)C(c1cccnc1)c1c(C)[nH][nH]c1=O (configuration not stated)	i
CCOC(=O)N1CCN(C(=O)c2ccc(CN(c3ccccc3)S(C)(=O)=O)cc2)CC1	0.6
CCCC(=O)NC(=S)Nc1cccc(C(C)=O)c1	1.7
Cc1cc(C(=O)CSc2nnnn2C)c(C)n1-c1ccc2c(c1)OCCO2	0.1
CCc1cc(=O)oc2c(C)c(O)c(CN3CCCCC3)cc12	1.0
COc1ccc2nc(SCC(=O)N(C)C3CCCCC3)c(C#N)cc2c1	2.4

(cont.)
SMILES	H5N1 CPE
CCCC(=O)Nc1cc(OCC)c(NC(=O)NC2CCCCC2)cc1OCC	i
CC(=O)C1C2c3ccccc3OC1(C)N=c1s/c(=C/c3cn(C)nc3C)c(=O)n12 (configuration not stated)	0.2
COc1cc(-c2nc3ccccc3s2)ccc1O	1.3
O=C1OC2(c3ccccc3)C3CCCC2C13	i
COCC(=O)N1CCN(c2ccc([N+](=O)[O-])cc2)CC1	i
CCSc1nc(N2CCOCC2)c2c(c1C#N)CC(C)(C)N(C)C2	1.4
Cc1cc(C)c(C#N)c(N2CCN(Cc3ccc4c(c3)OCO4)CC2)n1	i
Cn1c(=O)c2[nH]c(-c3cccnc3)nc2n(C)c1=O	8.9
CCc1nc(N)c(C#N)c(-c2ccncc2)c1C	i
Cc1ccc(OCC(=O)N/N=C2\CCOc3c(C)cccc32)cc1	0.4
Cc1ccccc1OCC(=O)Nc1cccc(NC(=O)c2ccco2)c1	i
O=C(Nc1ccccc1)c1nnsc1S(=O)(=O)c1ccc(Cl)cc1	4.4
COc1ccc2cc(C(=O)NC3CCCCC3)c(=O)oc2c1	i
Cc1nn(-c2ccccc2)c2[nH]c(=O)c(CNCc3ccc4c(c3)OCO4)cc12	i
CCCc1[nH]n(-c2nc3ccccc3s2)c(=O)c1C=NCCN1CCOCC1	0.5
CCn1c(=NC(=O)CN2C(=O)CCC2=O)sc2c(C)cc(C)cc21	0.5
COc1ccc(Cl)cc1NC(=O)CCn1cnc2ccccc2c1=O	2.6
Cc1nc2c(C(=O)NCc3ccc4c(c3)OCO4)c[nH]n2c(=O)c1Cl	0.1
O=C(COc1ccccc1)NCC(=O)Nc1ccc(S(=O)(=O)NCc2ccco2)cc1	0.5
CC1CCN(C(=O)CCCNC(=O)Cn2cnc3sc4c(c3c2=O)CCCC4)CC1	2.0
CN(C)c1ccc(/C=N/c2cc(-c3ccccc3)nn2-c2ccccc2)cc1	0.4
O=C(CCC1CC(=O)Nc2ccccc21)NCc1ccccc1 (configuration not stated)	0.0
COc1cccc(CNc2nc3nc(C)cc(C)n3n2)c1	0.8
C=CCn1c(Cc2cccs2)nnc1SCC(=O)Nc1cccc(OC)c1	0.6
CCc1nnc(NC(=O)CSc2nc(C)c3c(c2C#N)CCCC3)s1	0.2

Gathered by group, the compounds so far containing fluorine.
SMILES	H5N1 CPE
C=CCn1c(SCC(=O)Nc2ncc(Cc3cc(C(F)(F)F)ccc3Cl)s2)nnc1-c1ccncc1	i
COc1ccc(O)c(-c2cc(C(F)(F)C(F)F)nc(-c3ccccc3)n2)c1	i
O=C(NCC(F)(F)F)Nc1cccnc1	0.5
O=C1c2ccccc2C(=O)N1CCc1csc(-c2ccc(F)cc2)n1	i
O=C1/C(=C/c2ccc(F)cc2)SC(=S)N1Nc1ncc(C(F)(F)F)cc1Cl	i

Further compounds follow:
SMILES	H5N1 CPE
COC(=O)c1ccccc1NC(=O)c1ccco1	0.9
O=C(Nc1ccon1)c1ccc2c(c1)OCO2	i
CC(=O)Nc1ccc(C)cc1NC(C)=O	i
COC(=O)CC(NC(=O)c1ccco1)c1cccc2ccccc12 (configuration not stated)	0.6
O=C(Nc1ccc(F)cc1)c1ccccc1F	i
O=C1C(=O)N(Cc2cccnc2)C(c2ccccn2)/C1=C(/O)c1ccc(Br)cc1 (configuration not stated)	i
CC(c1nnc(SCC(=O)NC(=O)NCc2ccco2)n1-c1ccc(Cl)cc1)N(C)C (configuration not stated)	i
CCOCCCNc1nc2c(c(=O)[nH]c(=O)n2C)n1CCCc1ccccc1	i
CC(C)C(C(=O)OCC(=O)c1ccc2c(c1)NC(=O)CO2)N1C(=O)c2ccccc2C1=O (configuration not stated)	i
CN(C)CCCOC(=O)CCc1ccccc1	1.9
O=C(CNC(=O)c1ccc(Oc2ccccc2)cc1)OC1CCCCC1=O (configuration not stated)	i
C=CCOc1ccc2ccccc2c1CNc1ncn[nH]1	0.7
Cc1nn(Cc2nc(-c3cccs3)no2)c(C)c1Br	4.2
COc1cc(NS(=O)(=O)c2ccc(C)cc2)ccc1-n1cnnn1	2.1
Cc1cccc(NC(=O)CSc2n[nH]c(-c3ccncc3)n2)c1	i
CCc1ccc2[nH]c(=O)c(CN(Cc3ccc(F)cc3)C(c3nnnn3CCN3CCOCC3)C(C)C)cc2c1 (configuration not stated)	i
CCNC(=O)NC(=O)C(C)OC(=O)c1oc2ccc(OCC)cc2c1C (configuration not stated)	0.1
CCOC(=O)N1CCC(NC(=O)C(C)n2c3ccccc3c3cnn(C)c(=O)c32)CC1 (configuration not stated)	2.3
COCCN(C(=O)CSc1nnc(Nc2ccccc2F)s1)c1c(N)n(Cc2ccccc2)c(=O)[nH]c1=O	0.5
CCOc1ccc(-c2nc3n(c(=O)c2C#N)CCCS3)cc1	2.4
CCc1ccc(C(=O)Nc2nnn(CC)n2)cc1	1.7
Cc1cc(C(F)(F)F)c(C#N)c(Sc2ccccc2)n1	i
CC(=O)Nc1cccc(NC(=O)c2cc(-c3cccnc3)nc3ccc(Br)cc23)c1	i
CCOC(=O)C1=C(O)CSC1=Nc1cccc(Cl)c1	0.5
Cc1nc2ccccc2n1CCc1nc2c3ccccc3nc(=S)n2[nH]1	i

Part of the list above, reformatted:
Compound | H5N1 CPE
CCc1nc(N)c(C#N)c(-c2ccncc2)c1C | i
O=C(CCC1CC(=O)Nc2ccccc21)NCc1ccccc1 (configuration not stated) | 0.0
CN(C)CCCOC(=O)CCc1ccccc1 | 1.9
COC(=O)c1ccccc1NC(=O)c1ccco1 | 0.9
CCOC(=O)C1=C(O)CSC1=Nc1cccc(Cl)c1 | 0.5

(further entries)
SMILES	H5N1 CPE
CC(=O)c1ccc(CCCCCCCCCC(=O)O)s1	i
COc1ccc(C(=O)Nc2ccc(Cl)cn2)cc1Cl	i
CC(=O)c1cccc(NC(=O)CC2Oc3ccc(C)cc3NC2=O)c1 (configuration not stated)	i
CC(C)CNC(=O)COC(=O)c1cc(S(=O)(=O)N2CCCCC2)ccc1N1CCOCC1	0.8
COC(=O)c1[nH]c2ccc(C)cc2c1NC(=O)CN1CCc2cc(OC)c(OC)cc2C1	1.8
Fc1ccc(-c2nnc(CN3CCN(c4ncc(C(F)(F)F)cc4Cl)CC3)o2)cc1	1.0
Cc1c(C(=O)N2CCOCC2)[nH]c2c1C(=O)CC(c1ccccc1Cl)C2 (configuration not stated)	i
O=c1c(N2CCCCC2)coc2ccccc12	i
O=C(NCC1CCCO1)c1ccc(CS(=O)(=O)c2ccc(Cl)cc2)o1 (configuration not stated)	3.9
CCOc1ccccc1C1CC(=O)Nc2cc3c(cc21)OCCO3 (configuration not stated)	4.5
CC(C)COc1ccc(C(=O)NC(CC(C)C)C(=O)O)cc1 (configuration not stated)	0.1
CC(NC(N)=O)C(=O)OCc1ccc(Cl)cc1Cl (configuration not stated)	i
COc1ccc(CN2CCN(C(=O)CN3C(=O)C4C5C=CC(C5)C4C3=O)CC2)c(OC)c1OC (configuration not stated)	i
Cc1ccc2c(c1)CCCN2C(=O)c1ccc2c(c1)OCO2	0.6
Cn1nnnc1SCC(=O)N1CCN(c2cccc(Cl)c2)CC1	0.8
C=C(C)Cn1c(CCNC(=O)CCC)nc2ccccc21	1.1
COc1ccc(-c2nnc(N)s2)cc1	i
Cc1nc2nc3c(cn2n1)C(=O)CC(C)(C)C3	i
CC12CC(NC(=O)N1c1ccc(C(=O)N3CCN(c4ccc(F)cc4)CC3)cc1)c1ccccc1O2 (configuration not stated)	2.4
c1ccc(CCc2nc(-c3ccncc3)no2)cc1	0.7
CCn1c(=O)c2c(O)cc(=O)oc2c2ccccc21	0.6
Cc1cccc2cc(C#N)c(SCC(=O)N3CC(=O)Nc4ccccc43)nc12	2.4
COc1cc2c(cc1OC)CN(C(=O)c1ccc(OC)c(S(=O)(=O)N3CCOCC3)c1)CC2	2.2
COc1ccc(-c2noc(CN3CCN(c4ccccc4)CC3)n2)cc1	0.3
CC(NC(=O)Nc1nnc(C(F)(F)F)s1)N1C(=O)C2C3C=CC(C3)C2C1=O (configuration not stated)	4.1

Additional records
SMILES	H5N1 CPE
O=C(c1ccccc1)N1CCN(Cc2ccccc2Br)CC1	i
CCOC(=O)c1c(NC(=O)CCl)sc(C(=O)N(CC)CC)c1C	i
Cc1[nH]n(-c2ccccc2)c(=O)c1-c1ccccc1	i
CCOc1ccc(N2CC(=O)N(c3ccc(OCC)cc3)CC2=O)cc1	i
Cc1cc(O)c(/C=N/Nc2ccccc2)c(=O)o1	i
FC(F)(F)c1nnc2ccc(N3CCOCC3)nn12	2.3
CSc1ccc(Cl)c(C(=O)NCCOc2ccccc2)c1	1.1
COc1cc(NC(=O)CN2CC(c3ccccc3)CC2=O)cc(OC)c1 (configuration not stated)	0.8
CCn1c(=O)cc(N2CCCCC2)[nH]c1=O	i
Cc1cc(C)nc(NC(=O)/C=C/c2cccs2)c1	4.4
O=C(CCCn1c(SCC(=O)c2ccccc2)nc2ccccc2c1=O)NCC1CCCO1 (configuration not stated)	i
Cc1ccc(C)c2[nH]c(=O)c(C(c3nnnn3CCc3ccccc3)N3CCOCC3)cc12 (configuration not stated)	i
Cn1c(SCC(=O)Nc2ccc3nc(SCC(=O)N4CCCC4)sc3c2)nnc1-c1ccc(N)cc1	1.1
COc1ccc(-n2c(Cc3cccn3C)nnc2SCC(=O)Nc2ccccc2OC)cc1	0.4
O=C(c1ccccc1)N1CCc2ccccc21	i
Cc1ccccc1NC(=O)CSC1=C(C#N)C(c2ccsc2)CC(=O)N1 (configuration not stated)	i
